Bioassay records deposited in PubChem by Broad Institute.
rRNA inh HTS: reduced GFP signal of wild-type E. coli, primary screen, bacterial rRNA inhibitor project, GFP/RFP fluorescence, OD600, single point; AID 720706, 2013; actives 1.6% (n = 350,000); GFP signal change (wild-type ribosome), % (concentration not given with the values); E. coli WT GFP vs humanized-ribosome RFP mutants, 24 h; active compounds read low; DMSO median 0, no signal -100;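 active = significant combined selectivity score with lowered wild-type GFP, culture density cut under 30%, mutant RFP and density less affected; inactive = any of these conditions unmet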; also: one replicate is shown; some compounds called inactive have numbers as strong as hits
AF4-AF9 inh: inhibitors of AF4 peptide binding to AF9, primary screen, biochemical, AlphaScreen, biotin-AF4 peptide, FLAG-AF9, single point. inhibition, % at 10 µM. actives 0.47% (n = 350,000);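 active = every replicate reaching a set inhibition limit, whatever the replicate mean, cut at about 25% in these data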;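 also: 0% = plate neutral control median and 100% = total signal loss; the record names both 10 and 1 µM as test concentration; the first replicate is given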
Target sequence (P42568 whole entry, looked up): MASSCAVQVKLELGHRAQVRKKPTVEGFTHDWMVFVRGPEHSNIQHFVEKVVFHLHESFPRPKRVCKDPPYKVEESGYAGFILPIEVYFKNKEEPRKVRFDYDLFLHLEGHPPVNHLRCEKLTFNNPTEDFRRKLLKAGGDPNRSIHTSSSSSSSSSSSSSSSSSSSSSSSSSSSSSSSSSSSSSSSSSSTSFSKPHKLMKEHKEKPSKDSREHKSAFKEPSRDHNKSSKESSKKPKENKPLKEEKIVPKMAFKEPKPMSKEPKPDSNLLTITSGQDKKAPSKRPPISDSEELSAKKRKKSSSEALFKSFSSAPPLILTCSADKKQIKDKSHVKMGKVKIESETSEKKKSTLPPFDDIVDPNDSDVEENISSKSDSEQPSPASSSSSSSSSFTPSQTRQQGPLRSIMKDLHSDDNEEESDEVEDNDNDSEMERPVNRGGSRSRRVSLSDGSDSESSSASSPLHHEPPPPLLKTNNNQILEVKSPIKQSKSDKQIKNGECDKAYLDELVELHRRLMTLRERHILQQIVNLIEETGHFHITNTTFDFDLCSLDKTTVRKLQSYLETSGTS
rRNA inh HTS OD600: second read-out of rRNA inh HTS, no call of its own (marks repeat the call); OD600 change, %; measured here: OD600 growth;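 optical density of the mix in the first replicate; 0 = DMSO median and -100 = no signal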
rRNA inh HTS RFP: second read-out of rRNA inh HTS, no call of its own (marks repeat the call); RFP signal change, %; measured here: RFP humanized mutant strains;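 first replicate; 0 = DMSO median and -100 = no signal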
Numbers without * were called inactive; & = joins results of further samples. An excerpt (hit frequency here may not be typical).

SMILES	rRNA inh HTS	rRNA inh HTS OD600	rRNA inh HTS RFP	AF4-AF9 inh
Cc1noc(C)c1NC(=O)N(C)C[C@H]1OCc2cnnn2CCCC(=O)N([C@@H](C)CO)C[C@H]1C	9.5&2.3	10.5&-0.4	1.3&0.6	-4.1&-1.0
CCOc1cc(OCC)cc(C(=O)N2CCC[C@H]2C(=O)N2CCC[C@H]2C(=O)NCc2ccc(F)cc2F)c1	-3.5	7.2	1.9	-2.4
C[C@@H]1CCCCO[C@H](CN(C)Cc2ccc(Cl)c(Cl)c2)[C@@H](C)CN([C@@H](C)CO)C(=O)c2cc(NC(=O)C3CCCCC3)ccc2O1	-1.5	3.6	0.6	3.1
CNC[C@H]1Oc2c(NC(=O)C3CCOCC3)cccc2C(=O)N([C@@H](C)CO)C[C@@H]1C	4.5	8.2	0.6	-20.7
O=C(C[C@@H]1C=C[C@H](NC(=O)C2CCC2)[C@@H](CO)O1)NCc1ccccc1Cl	2.2	-5.6	-1.1	-10.5
CCS(=O)(=O)NCC[C@@H]1CC[C@@H](NC(=O)C2CC2)[C@@H](CO)O1	1.0	3.0	0.2	-4.5
C[C@H](CO)N1C[C@H](C)[C@@H](CN(C)C(=O)c2ccncc2)OCCCC[C@H](C)Oc2ccc(NS(C)(=O)=O)cc2C1=O	0.1	8.7	-0.4	-0.6
C[C@@H]1CN([C@H](C)CO)S(=O)(=O)c2ccc(C#CC3CCCC3)cc2O[C@@H]1CN(C)Cc1ccccc1C(=O)O	-6.1	-16.4	1.2	-3.3
CCCNC(=O)N1C[C@H]2[C@@H](c3ccccc31)[C@H](CO)N2Cc1ccc2c(c1)OCO2	2.4	5.0	-3.4	-0.5
CCCNC(=O)N1CC2(CN(C(=O)c3cccc(F)c3)C2)c2c([nH]c3cc(OC)ccc23)[C@@H]1CO	-2.5	-7.7	6.2	-5.2
COc1ccc(CN2C[C@@H](O)COC[C@H]3O[C@H](CC(=O)N4CCc5ccccc5C4)CC[C@@H]32)cc1	-5.4	-2.9	-0.2	0.3
O=C(O)[C@@H]1[C@@H](CO)[C@@H]2Cn3c(ccc(-c4ccccc4F)c3=O)[C@@H]2N1Cc1ccccc1	-0.7	7.8	0.1	1.7
O=C(NCc1ccccc1)c1cc(C2CCCN(S(=O)(=O)c3ccccc3)C2)on1 (configuration not stated)	-3.0	3.8	-5.3	-4.3
CCCCNc1c(CC(C)C)nc2nc(C)cc(C)n12	9.1	21.3	0.1	-2.4
Cc1cc(C(=O)Nc2cccc3c2O[C@H](CN(C)Cc2ccccc2)[C@@H](C)CN([C@@H](C)CO)C3=O)n(C)n1	-4.8	3.4	-2.9	0.0
C[C@@H]1CCCCO[C@@H](CN(C)S(=O)(=O)c2ccc(Cl)cc2)[C@H](C)CN([C@H](C)CO)C(=O)c2cc(NS(=O)(=O)c3cccs3)ccc2O1	-2.1	-5.3	-2.6	2.0
COc1ccccc1C#Cc1ccc2c(c1)[C@H]1[C@H](CCN1S(=O)(=O)c1cccc(C)c1)[C@@H](CO)N2	-0.9	23.9	-9.8	2.5
CN1CCCCN2[C@@H](CO)[C@@H](c3ccc(/C=C/c4ccccc4)cc3)[C@@H]2C1	0.6	-5.0	2.6	7.5
CCN(C(=O)CSc1nnc(-c2cccc(Cl)c2)n1N)c1c(N)n(Cc2ccccc2)c(=O)[nH]c1=O	3.3	8.1	-0.8	0.8
O=C(C[C@@H]1CC[C@H]2[C@@H](COC[C@@H](O)CN2Cc2ccc(Cl)cc2)O1)NCc1cccc(F)c1	-14.9	-55.7	7.8	2.0
COc1ccc(S(=O)(=O)N(C)C[C@H]2OCCCC[C@@H](C)Oc3ccc(NS(=O)(=O)c4cccs4)cc3C(=O)N([C@@H](C)CO)C[C@@H]2C)cc1	-1.3	-2.5	4.2	3.5
C[C@@H]1CN([C@H](C)CO)C(=O)c2cc(C3=CCCCC3)cnc2O[C@@H]1CN(C)C(=O)Cc1ccncc1	1.3	11.8	-2.4	2.4
C[C@@H]1CN([C@@H](C)CO)S(=O)(=O)c2ccc(C#CCC3CCCC3)cc2O[C@@H]1CN(C)C(=O)CN(C)C	4.1	4.8	2.0	7.4
COc1ccccc1NC(=O)N(C)C[C@@H]1Oc2ncc(C#CCC(C)C)cc2C(=O)N([C@@H](C)CO)C[C@H]1C	-1.4	-8.1	4.0	2.6
CC(C)NC(=O)Nc1cccc2c1O[C@@H](CN(C)S(C)(=O)=O)[C@@H](C)CN([C@@H](C)CO)C2=O	4.3	-2.5	-1.8	-3.9
O=C(Nc1ccc(F)cc1)N1CCCCN2[C@@H](CO)[C@H](c3ccc(C4=CCCCC4)cc3)[C@@H]2C1	-56.0	-78.5	-15.2	12.4
CC(C)CC#Cc1cnc2c(c1)C(=O)N([C@H](C)CO)C[C@@H](C)[C@@H](CN(C)C(=O)c1cnccn1)O2	0.3	2.2	-0.9	-6.4
COc1ccc(-c2ccc(C(=O)Nc3ccc(C(C)C)cc3)c3occc23)c(C)c1	7.7	20.2	-2.9	-2.1
O=S(=O)(c1cccs1)N1CCCCN2[C@@H](CO)[C@@H](c3ccc(/C=C/c4ccccc4)cc3)[C@@H]2C1	-3.7	0.8	2.9	0.7
COc1ccc(CN(C)C[C@H]2Oc3c(NC(=O)Nc4ccc(C(F)(F)F)cc4)cccc3C(=O)N([C@H](C)CO)C[C@H]2C)cc1	-13.2	-49.5	29.1	9.5
CO[C@H]1CN(C)C(=O)c2ccc(NS(C)(=O)=O)cc2OC[C@H](C)N(C(=O)C2CCCCC2)C[C@@H]1C	4.7	5.7	1.2	0.2
COc1ccc(CN(C)C[C@H]2Oc3c(NS(=O)(=O)c4cccs4)cccc3C(=O)N([C@@H](C)CO)C[C@@H]2C)cc1	2.0	11.8	-5.7	5.6
CCCC#Cc1ccc([C@H]2[C@H](C#N)N(C(=O)C3CC3)[C@H]2CO)cc1	1.3	-0.3	-0.5	-1.0
CC(C)C#Cc1ccc2c(c1)O[C@@H](CN(C)Cc1ccccc1)[C@H](C)CN([C@H](C)CO)S2(=O)=O	1.3	-4.0	0.0	7.9
O=C(N[C@H]1CC[C@@H](CC(=O)N2CCCCC2)O[C@@H]1CO)c1ccccn1	2.8	6.2	-1.7	0.8
C[C@@H]1CN([C@@H](C)CO)S(=O)(=O)c2ccc(-c3ccncc3)cc2O[C@@H]1CN(C)C(=O)c1ccc2c(c1)OCO2	-3.2	-9.0	-1.1	-0.8
COc1ccc(CN(C)C[C@@H]2Oc3ccc(NC(=O)Cc4ccccc4)cc3C(=O)N([C@H](C)CO)C[C@H]2C)cc1	1.7	2.4	0.1	-3.7
O=C(NCC[C@H]1CC[C@H](NC(=O)c2ccccc2F)[C@@H](CO)O1)c1ccc2c(c1)OCO2	3.8	2.8	-1.2	-0.8
COc1ccccc1C#Cc1ccc([C@@H]2[C@@H](C#N)N(C(=O)C3CCCC3)[C@@H]2CO)cc1	1.7	-3.0	20.3	-12.8
CC(=O)C1=CCC(c2cccc(Cl)c2)N(S(=O)(=O)c2ccc(C)cc2)C1 (configuration not stated)	-1.8	-20.0	-4.0	-0.5
COCC(=O)N1[C@H](CO)[C@@H](c2ccc(-c3ccccc3OC)cc2)C12CN(C(C)=O)C2	2.9	4.1	-0.7	-2.1
CC(C)NC(=O)Nc1ccc2c(c1)CC(=O)N([C@H](C)CO)C[C@@H](C)[C@@H](CN(C)C(=O)Nc1ccc3c(c1)OCO3)O2	1.3	7.5	-1.2	-2.3
CC(C)(O)C#Cc1ccc([C@H]2[C@H]3CN(Cc4ccccc4F)CCCCN3[C@H]2CO)cc1	3.0	1.2	1.0	7.0
CC(C)CC#Cc1cnc2c(c1)C(=O)N([C@H](C)CO)C[C@H](C)[C@H](CN(C)Cc1cccc(C(=O)O)c1)O2	-1.7	-0.6	-1.7	-5.6
COc1ccc2c3c(n(C)c2c1)[C@H](CO)NCC31CN(C(=O)Nc2ccccc2F)C1	0.7	-0.1	-1.8	1.9

Complete entries as entered above.
CCCC#Cc1ccc([C@H]2[C@H](C#N)N(C(=O)C3CC3)[C@H]2CO)cc1 as listed: rRNA inh HTS = 1.3; rRNA inh HTS OD600 = -0.3; rRNA inh HTS RFP = -0.5; AF4-AF9 inh = -1.0
CC(C)CC#Cc1cnc2c(c1)C(=O)N([C@H](C)CO)C[C@H](C)[C@H](CN(C)Cc1cccc(C(=O)O)c1)O2 as listed: rRNA inh HTS = -1.7; rRNA inh HTS OD600 = -0.6; rRNA inh HTS RFP = -1.7; AF4-AF9 inh = -5.6

The listing continues.
SMILES	rRNA inh HTS	rRNA inh HTS OD600	rRNA inh HTS RFP	AF4-AF9 inh
O=S(=O)(c1ccc(-c2ccccc2)cc1)N1C[C@@H]2N[C@H](C1)C2c1ccc(-c2ccccc2)cc1 (some centres not stated)	1.3&-3.1	4.3&3.2	2.6&-1.8	-1.3&-7.7
O=C(Cn1sc2ccccc2c1=O)Nc1ccccc1	2.5	11.1	3.8	-11.6
O=C(c1ccccn1)N1CC(=O)N2[C@H](CO)[C@H](c3ccc(C#Cc4ccccc4)cc3)[C@@H]2C1	5.3	-2.7	5.0	-2.8
CCNC(=O)Nc1ccc2c(c1)c(=O)n(C)n2CC=C(C)C	7.3	14.6	-1.0	1.7
COc1ccc(S(=O)(=O)NCc2ccc(C(=O)NCCN(C)Cc3ccccc3)cc2)cc1	-2.6	1.4	23.6	-6.0
CCCCCCn1cc(CN(C)C2CN(Cc3cn(CCCCCC)nn3)S(=O)(=O)C2)nn1 (configuration not stated)	-20.6	-17.8	0.4	-1.4
COc1ccccc1NC(=O)N(C)C[C@H]1Oc2ncc(C#CCC(C)C)cc2C(=O)N([C@H](C)CO)C[C@@H]1C	-2.4	-15.0	6.5	0.0
N#Cc1ccc(-c2ccc([C@H]3[C@H]4CN(C(=O)Cc5ccccc5)CC(=O)N4[C@H]3CO)cc2)cc1	-2.7	6.0	-0.8	-1.5
C/C=C/c1ccc2c(c1)O[C@@H](CN(C)C(=O)c1ccc3c(c1)OCO3)[C@@H](C)CN([C@@H](C)CO)S2(=O)=O	-8.4	-7.5	-0.5	1.8
Cc1ccccc1S(=O)(=O)N1[C@H](CO)[C@@H](c2ccc(C#CC3CCCC3)cc2)[C@@H]1C#N	-4.7	-5.2	-3.6	-8.0
COc1ccc(-c2cn(CC[C@H]3CC[C@@H](NC(=O)CCN4CCCCC4)[C@H](CO)O3)nn2)cc1	2.4	0.6	-3.0	2.7
O=C(CNC(=O)c1cc(-c2ccccc2)nn1-c1ccccc1)Nc1ccccc1Br	7.1	9.9	5.2	-13.1
N#C[C@@H]1[C@H](c2ccccc2-c2cccc(F)c2)[C@@H](CO)N1S(=O)(=O)c1cccc(F)c1	-40.9	-67.9	-0.6	0.8
COc1cccc(CNC(=O)C[C@@H]2CC[C@H](NC(C)=O)[C@@H](CO)O2)c1	0.6	2.9	0.7	0.1
C[C@@H]1CN([C@@H](C)CO)C(=O)c2ccccc2-c2ccccc2CO[C@@H]1CN(C)C(=O)Nc1ccc(F)cc1	1.1	-1.5	1.7	-18.0
C[C@@H]1CN([C@@H](C)CO)C(=O)c2cc(NC(=O)C3CCCCC3)ccc2O[C@@H](C)CCCCO[C@H]1CN(C)CC1CCCCC1	3.1	-1.2	0.9	0.4
COCC(=O)N1[C@@H]2CN(C(=O)c3ccccc3)c3ccccc3[C@@H]2[C@@H]1CO	2.7	3.5	-1.1	-1.6
CC(C)NC(=O)Nc1ccc2c(c1)C(=O)N([C@@H](C)CO)C[C@H](C)[C@@H](CN(C)S(C)(=O)=O)O2	-1.3	1.8	-0.5	-3.8
CO[C@@H]1CC[C@@H]2CCN(C)C(=O)[C@@H](C)N(C)C(=O)c3cccc(C#N)c3OC[C@H]1O2	6.9	16.7	-5.5	2.6
CO[C@H](CN(C)C(=O)c1cnccn1)[C@@H](C)CN([C@H](C)CO)S(=O)(=O)c1ccc(Cl)cc1	2.4	-2.4	-0.3	-0.3
CS(=O)(=O)N1CC2(C1)[C@@H](c1ccccc1)[C@@H](CO)N2Cc1ccc(F)cc1	-4.8	2.2	-1.3	-0.9
C/C=C/c1cnc2c(c1)C(=O)N([C@@H](C)CO)C[C@H](C)[C@@H](CN(C)S(=O)(=O)c1cn(C)cn1)O2	3.5	8.2	-3.3	-2.1
CCc1nc2ccc(C(=O)NCc3ccc4c(c3)OCO4)cn2c1N(CCC(C)C)CCN(C)C	3.4	15.1	3.3	9.2
COc1ccc(CN(C)C[C@H]2OCCCC[C@@H](C)Oc3ccc(NS(=O)(=O)c4ccc(F)cc4)cc3C(=O)N([C@H](C)CO)C[C@H]2C)cc1	0.3	-2.5	0.1	8.6

Five of these compounds, set out differently.
rRNA inh HTS	rRNA inh HTS OD600	rRNA inh HTS RFP	AF4-AF9 inh	SMILES
2.7	3.5	-1.1	-1.6	COCC(=O)N1[C@@H]2CN(C(=O)c3ccccc3)c3ccccc3[C@@H]2[C@@H]1CO
-1.3	1.8	-0.5	-3.8	CC(C)NC(=O)Nc1ccc2c(c1)C(=O)N([C@@H](C)CO)C[C@H](C)[C@@H](CN(C)S(C)(=O)=O)O2
6.9	16.7	-5.5	2.6	CO[C@@H]1CC[C@@H]2CCN(C)C(=O)[C@@H](C)N(C)C(=O)c3cccc(C#N)c3OC[C@H]1O2
2.4	-2.4	-0.3	-0.3	CO[C@H](CN(C)C(=O)c1cnccn1)[C@@H](C)CN([C@H](C)CO)S(=O)(=O)c1ccc(Cl)cc1
-4.8	2.2	-1.3	-0.9	CS(=O)(=O)N1CC2(C1)[C@@H](c1ccccc1)[C@@H](CO)N2Cc1ccc(F)cc1
